Assay outcomes as filed in PubChem BioAssay.
D2 agonist = human D2 receptor agonism in beta-arrestin assay | activation, % (no concentration beside the values) | DiscoveRx PathHunter D2 beta-arrestin, luminescence, 90 min; 100% = 57 uM dopamine signal | P14416 | 0.084% of 360,000 active; in the data active = activation above about 40%; inconclusive = about 15% to 40%; inactive = below about 15%; further: compound concentration not given in the record; the text of the record calls up to 30% inactive
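DiscoveRx PathHunter D2 beta-arrestin cells (2,100/well) attached overnight, then compound-stimulated 90 min at 37 C in HBSS/10 mM HEPES/0.1% Tween-20 buffer; beta-galactosidase complementation read by luminescence after 1 h at ambient temperature. Dopamine 57 uM final (EC100) as control.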
Six1-Eya2 blk = inhibitors of human Six1/Eya2 interaction; AlphaScreen GST-Six1/His-Eya2 binding, biochemical; stronger effect = lower value; control for the full effect not named in the record; activity change, % (test concentration not listed); 0.56% of 360,000 active; in the data active = activity change below about -65%; inconclusive = about -30% to -65%; inactive = above about -30%; further: on the % scale 0 is the no-effect control and ±100 the full control effect; compound concentration not given in the record
Target sequence (O00167 whole entry, looked up): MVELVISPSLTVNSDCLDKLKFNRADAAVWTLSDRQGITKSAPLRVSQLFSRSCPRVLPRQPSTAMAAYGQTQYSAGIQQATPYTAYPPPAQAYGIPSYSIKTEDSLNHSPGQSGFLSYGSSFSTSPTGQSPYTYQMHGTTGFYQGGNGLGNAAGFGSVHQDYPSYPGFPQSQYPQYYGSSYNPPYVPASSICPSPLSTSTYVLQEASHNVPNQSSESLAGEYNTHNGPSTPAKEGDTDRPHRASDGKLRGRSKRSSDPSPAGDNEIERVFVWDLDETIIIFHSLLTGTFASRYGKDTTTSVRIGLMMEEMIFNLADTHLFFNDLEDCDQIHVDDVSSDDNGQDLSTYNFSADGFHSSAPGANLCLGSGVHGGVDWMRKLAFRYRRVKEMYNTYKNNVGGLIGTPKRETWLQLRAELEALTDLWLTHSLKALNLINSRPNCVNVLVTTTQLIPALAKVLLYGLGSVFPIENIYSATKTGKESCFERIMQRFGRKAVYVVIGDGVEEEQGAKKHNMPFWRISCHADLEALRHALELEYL
Target sequence (Q15475 whole entry, looked up): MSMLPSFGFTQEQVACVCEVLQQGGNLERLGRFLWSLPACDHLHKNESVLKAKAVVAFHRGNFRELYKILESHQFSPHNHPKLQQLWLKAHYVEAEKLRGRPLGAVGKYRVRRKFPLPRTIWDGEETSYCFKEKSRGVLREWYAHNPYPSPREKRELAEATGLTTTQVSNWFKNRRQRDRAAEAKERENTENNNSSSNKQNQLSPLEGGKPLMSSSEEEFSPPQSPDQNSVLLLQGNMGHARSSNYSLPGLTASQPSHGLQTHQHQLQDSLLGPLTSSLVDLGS
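GST-Six1 + His-Eya2 (5X stock: 250/500 nM); Tris pH 8.0, 300 mM NaCl, 0.05% BSA, 0.02% Tween 20; GSH donor/Ni acceptor beads; 1 h 37 °C dark; AlphaScreen readout.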
gsp antag = antagonists of gsp mutant (McCune-Albright syndrome); gsp-mutant cells, cAMP HTRF, 30 min; control for the full effect not named in the record; 0.4% of 340,000 active; Potency, µM (titrated, usually from 76.9 µM), without a hit: at the highest dose activity change, negative = inhibition, actives largely listed as inhibitors; active = falling curve of any shape with a large fitted effect; inconclusive = falling curve, mostly with a smaller effect; inactive = flat or rising curve; cell line not stated here;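 further: intracellular cAMP measured with PDE inhibitor Ro 20-1724 present during compound exposure; potency means the concentration at half of the fitted maximal effect; on the % scale 0 is the no-effect control and ±100 the full control effect; nearly all actives have a fitted effect of over 65% in size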
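HTRF cAMP measurement after 30 min RT detection following 30 min, 37C compound treatment alongside […] (added as 300 uM solution) in G418-selected cells seeded at 2000/well and grown 16–24 h.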
D2 PAM = human D2 receptor positive allosteric modulation; P14416; DiscoveRx D2 beta-arrestin cells, luminescence, 90 min; 100% = 57 uM dopamine signal; potentiation, % (concentration not given with the values); 0.23% of 360,000 active; AID 624464; active = potentiation of 50% or more; inconclusive = 30% to 50%; inactive = 30% or less;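 further: compound concentration not given in the record; tested on top of an EC20 dose of dopamine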
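PathHunter D2 cells, attached overnight at 37 deg C, received compound in DMSO plus dopamine at EC20 (50 nM final) for 90 min at 37 deg C. Beta-arrestin recruitment was read as luminescence after 1 h with detection reagent at ambient temperature.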
CtBP-E1A blk = inhibitors of CtBP/E1A interaction. AlphaScreen GST-E1A/His-CtBP binding, 1536-well; stronger effect = lower value; control for the full effect not named in the record. AID 651724. activity change, % (test concentration not listed). 0.49% of 340,000 active; in the data active means activity change below about -65%; inconclusive means about -30% to -65%; inactive means above about -30%; further: on the % scale 0 is the no-effect control and ±100 the full control effect; compound concentration not given in the record
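Steps: dispense buffer (Tris pH 8.0, NaCl 300 mM, TCEP 1 mM, BSA, Tween 20); add 5X protein mix (GST-E1A, His-CtBP, 125 nM each); pin 23 nL compound; 2 h at 37 °C, dark; add 5X beads (50 ug/mL); 1 h; read.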
gsp agonist = agonists of gsp mutant (McCune-Albright syndrome); 0.13% of 340,000 active; gsp mutant cells, cAMP HTRF, 30 min; control for the full effect not named in the record; AID 624287; Potency, µM (series often up to 76.9 µM), without a hit: at the highest dose activation (cAMP increase), hits mostly activators; active = well fitted activation curve with a large enough effect; inconclusive = small, poorly fitted or top-dose-only effect, or another doubt; inactive = no such curve, though single readings can be large or run the other way; cell line not stated here;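 further: phosphodiesterase inhibitor Ro 20-1724 added with compounds to block cAMP breakdown; potency means the concentration at half of the fitted maximal effect; nearly all actives have a fitted effect of over 60% in size; about a fifth of the inactives were tested at one dose only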
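Cells in DMEM/10% FBS with G418 were pretreated with compounds in DMSO plus […] (300 uM stock) for 30 min at 37C. cAMP was measured by HTRF (cAMP-d2 plus anti-cAMP antibody-K) after 30 min at room temperature.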
The depositor's hits bear a star; ? = inconclusive; . = not tested or not shown; [ ] = dose if it differs, or a comment.

mol,D2 agonist,Six1-Eya2 blk,gsp antag,D2 PAM,CtBP-E1A blk,gsp agonist
Cc1ccc(SC[C@H](c2ccccc2)N2CCN(C)CCC2=O)cc1,-3.4,-1,2%,-20,-2,.
CCCCOc1ccc(OCCSc2nc3ccccc3n2CC(=O)O)cc1,3.6,6,-23%,2,.,-11%
COc1ccc(NC(C)=O)cc1S(=O)(=O)N1CCn2cccc2C1C (configuration not stated),6.9,-7,1%,-1,0,28%
CCOc1cc(CNc2ccc(N3CCOCC3)cc2)cc(Br)c1OCC,3.8,-27,-9%,15,-67*,1%[15.4 µM]
O=C(O)CCCCCNS(=O)(=O)c1cccc2c1C(=O)c1ccccc1C2=O,13,-76*,-15%,76*,0,13%
S=c1[nH]nc(-c2ccco2)n1/N=C/c1ccc(Cl)c(Cl)c1,-7.0,-15,-2%,-20,-4,-5%[15.4 µM]
CC(=O)N[C@@H](C)C(=O)OC(C)C(=O)Nc1cccc([N+](=O)[O-])c1 (some centres not stated),-2.5,8,-2%,-2,3,-7%[15.4 µM]
CCOC(=O)Cc1csc(NC(=O)c2ccc(S(=O)(=O)N3CCCC3)cc2)n1,3.7,-1,-21%,1,5,0%
CC(C)(C)CC(C)(C)NCC(=O)Nc1c2c(nc3ccccc13)CCC2,-8.9,-7,8%,-9,.,-134%[inhibitor]
CCn1c(-c2cc(Br)ccc2O)n[nH]c1=S,-2.2,3,-14%,-6,53,-44%[inhibitor]
NS(=O)(=O)c1ccc(CCNC(=O)Cc2c[nH]c3ccccc23)cc1,-2.6,9,10%,12,8,-16%
Clc1ccc(OCc2nn[nH]n2)cc1,2.9,0,5%,18,.,-88%
CCC(C)NCCOc1cc(C)cc(C)c1C (configuration not stated),-5.6,18,8%,-15,0,28%[15.4 µM]
c1ccc(COc2cccc(-c3cc4nc(NCCN5CCOCC5)ccn4n3)c2)cc1,7.4,-15,.,-3,-5,.
CC1CCC(N2CCN(c3ccc([N+](=O)[O-])cc3)CC2)CC1 (configuration not stated),-6.1,1,-6%,-13,0,2%[15.4 µM]
Cc1cc(Cl)c2oc(C(=O)N(C)C3CCOC3)c(C)c2c1 (configuration not stated),-2.1,4,10%,-14,-13,?
CCc1cc(Br)ccc1NC(=O)C1CCCO1 (configuration not stated),0.8,8,9%,-9,15,11%
CCN1CCN(c2nnc(-c3ccc(F)cc3)c3ccccc23)CC1,-4.2,-17,0%,-20,0,11%
O=C(CN(C(=O)CSc1nnc(COc2ccccc2)o1)c1ccc(F)cc1)NC1CCCCC1,-0.2,1,?,-29,3,2%
OC(c1cccc(CN2CCCCC2)c1)c1ncc(-c2ccccc2Cl)[nH]1 (configuration not stated),1.4,-15,.,-17,-2,.
CC(C)CN(C(=O)c1cccc([N+](=O)[O-])c1)c1c(N)n(CC(C)C)c(=O)[nH]c1=O,0.8,-4,10%,-9,-7,-6%[15.4 µM]
O=C1CCN(C(=O)c2ccc(Cl)cc2)N1,-1.9,5,-3%,-1,9,-37%[inhibitor]
Cc1ccc(CNC(=O)C(=O)NCC2OCCN2S(=O)(=O)c2ccc(Br)cc2)cc1 (configuration not stated),2.1,1,3%,-7,0,-8%
O=C(CCc1nc2sc3c(c2c(=O)[nH]1)CCCC3)NCCc1ccc(F)cc1,-9.0,1,0%,-18,0,32%
CCCCn1c(N)c(N(CC(C)C)C(=O)c2cc3c(s2)CCC3)c(=O)[nH]c1=O,0.9,-3,1%,-5,5,-25%[15.4 µM]
Cc1ccc(S(=O)(=O)N2CCCC2CNC(=O)c2ccccc2)cc1 (configuration not stated),-0.2,-1,-10%,-23,6,3%
CC(=O)N1CCN(c2ccc(NC(=S)NC(=O)c3ccccc3)cc2)CC1,-3.0,11,0%,-1,24,5%
CO/N=C/C(C#N)=C/c1ccc(OC)cc1,7.1,-4,-11%,5,6,?
CN(C)S(=O)(=O)N1CCN(C(=O)c2ccccc2)CC1,2.5,1,6%,2,7,-22%
COc1ccc(OC(C)C(=O)NC2CCCCCCC2)cc1 (configuration not stated),1.6,0,4%,-5,-13,13%
Cc1cc(NS(=O)(=O)c2c(C(=O)N3CCOCC3)c(C)n(C)c2C)ccc1Br,-0.9,-2,-14%,-3,0,20%
CC(/C=N/NC(=O)c1cc(-c2ccncc2)nc2ccccc12)=C\c1ccco1,0.6,?,9%,-2,?,16%
CCOC(=O)C1CCCN(C(=O)Cc2ccc(OC)c(OC)c2)CC1 (configuration not stated),7.4,-1,.,3,6,.
O=C(c1ccccc1Cl)N1CCN(C(=O)C2CCCO2)CC1 (configuration not stated),-4.7,5,12%,0,0,-1%[15.4 µM]
CC(C)CC(OC(=O)c1cccs1)C(=O)NCC1CCCO1 (configuration not stated),0.3,17,4%,-12,-2,-25%
CN(C)c1cccc(C(=O)NN2C(=O)NC3(CCCCC3)C2=O)c1,-0.1,-3,5%,-14,9,18%
Cc1ccc(C(=O)N/C(=C\c2cn(-c3ccccc3)nc2-c2ccccc2)C(=O)N2CCOCC2)cc1,-0.1,-11,2%,-9,-3,-66%[inhibitor]
CC(=O)NN1C(=O)/C(=C\c2ccc(Br)o2)SC1=S,-1.4,-8,-5%,-29,-12,-13%
CCOC(=O)c1c(C)[nH]c(C(C)=NNC(=O)c2cccs2)c1C,3.1,-9,3%,-9,-19,-24%
CCN(CC)CCCNC(=O)Cn1nc([N+](=O)[O-])c(Cl)c1C,-1.4,-4,6%,-6,.,-69%[inhibitor]
CCN(CC)CCn1c(=N)n(CCO)c2ccccc21,-1.3,0,3%,-4,3,-9%
CCCc1cc(=O)oc2cc(OCC(=O)N3CCOCC3)c(Cl)cc12,-3.7,4,11%,-11,5,?
CCOC(=O)C1CCN(C(=O)CCNS(=O)(=O)c2cc(Br)cnc2N)CC1,0.8,5,6%,-1,3,?
CCOc1ccccc1NC(=O)c1cccc2c1C(=O)N(CCOC)C2,-5.1,1,-8%,-4,0,-45%[inhibitor]
COC(=O)c1ccc(N/N=C/c2cc([N+](=O)[O-])cc(OC)c2O)cc1,-1.9,-3,-8%,-1,4,-20%
O=C(NC1=NCCS1)c1ccc2c(c1)C(=O)N(Cc1ccco1)C2=O,-1.6,-5,-20%,-1,-2,0%
Cc1ccc(S(=O)(=O)Cc2ccc(C(=O)OCc3ccccc3)cc2)cc1,-2.7,6,-11%,-18,6,-59%[inhibitor]
O=c1c2nncn2c2cccnc2n1CCNc1ncc(C(F)(F)F)cc1Cl,3.0,4,-3%,-1,8,5%[15.4 µM]

3 entries from above, arranged by their value in D2 PAM, smallest number first:
| Structure | D2 agonist | Six1-Eya2 blk | D2 PAM | CtBP-E1A blk | gsp agonist |
| --- | --- | --- | --- | --- | --- |
| CCCc1cc(=O)oc2cc(OCC(=O)N3CCOCC3)c(Cl)cc12 | -3.7 | 4 | -11 | 5 | ? |
| CCOc1ccccc1NC(=O)c1cccc2c1C(=O)N(CCOC)C2 | -5.1 | 1 | -4 | 0 | -45%[inhibitor] |
| O=C(NC1=NCCS1)c1ccc2c(c1)C(=O)N(Cc1ccco1)C2=O | -1.6 | -5 | -1 | -2 | 0% |

(list continues)
mol,D2 agonist,Six1-Eya2 blk,gsp antag,D2 PAM,CtBP-E1A blk,gsp agonist
CSc1ccc(S(=O)(=O)NCC(=O)OCC(=O)N2CCC(C)CC2)cc1[N+](=O)[O-],-1.8,-2,-12%,-1,1,?
CCOC(=O)CC(=O)CSc1ncnc2c1cnn2-c1ccccc1,0.9,-8,1%,-11,-8,27%
CCc1nc(NCC2CCCO2)c2oc3ccccc3c2n1 (configuration not stated),-4.1,-12,-5%,-10,-3,-26%
c1ccc(CNc2ncnc3sccc23)cc1,-0.5,7,7%,-11,.,-8%
O=C(Nc1ccccc1F)NC1CC1,-2.7,3,9%,-15,3,-1%[15.4 µM]
NC(N)=NC(N)=Nc1ccc(SC(F)(F)F)cc1,-1.0,2,10%,0,-6,25%
CC1CCN(C(=O)c2cccc(NC(=O)c3cccs3)c2)CC1,-1.5,0,2%,-3,0,13%[15.4 µM]
CCOC(=O)C1=C(C)N(C)C(=O)NC1c1c(O)ccc2ccccc12 (configuration not stated),-2.9,1,-5%,4,7,-25%
C=Cc1ccc(Cn2nc(-c3ccccc3)ccc2=O)cc1,-4.7,7,17%,-11,16,-29%
Cc1ccc(NC(=O)C2CCCN(C(=O)c3ccc(Cl)cc3)C2)cc1S(=O)(=O)N1CCOCC1 (configuration not stated),5.6,-4,-18%,3,2,9%
O=C(NCc1ccccc1)C(c1cccnc1)N(C(=O)c1ccccn1)c1ccc(F)cc1 (configuration not stated),-5.1,9,4%,-4,0,-3%
O=C(NCc1ccccc1)NC1(C(=O)Nc2ccc3c(c2)OCCO3)CCCCC1,0.8,3,3%,-3,2,?
Cc1ccc(S(=O)(=O)N2CCN(S(=O)(=O)c3ccc4c(c3)OCCO4)CC2)cc1,0.1,6,2%,-2,3,23%
CCOc1ccc(-c2nnc(-c3ccccc3)n2-c2ccccc2)cc1,-1.8,5,-3%,2,1,1%
CCCOc1ccc(C(=O)NNC(=S)NC(=O)c2cccs2)cc1,-12,-2,3%,-8,-27,-8%[15.4 µM]
O=C(NCc1ccc(Cl)cc1)C1CC(O)CN1S(=O)(=O)c1ccc(Cl)cc1 (configuration not stated),-4.4,2,-1%,-9,-1,12%
C=CCOCC(O)Cn1c(N2CCCC2)nc2c1c(=O)[nH]c(=O)n2C (configuration not stated),-4.1,4,-14%,-4,-10,?
CC1(C(=O)Nc2ccc3c(c2)OCO3)CC1(Cl)Cl (configuration not stated),-7.8,-4,4%,-8,-2,-65%[inhibitor]
O=C(COC(=O)c1cnc(Cl)c(Cl)c1)Nc1ccc(S(=O)(=O)N2CCCC2)cc1,-4.7,-77*,-15%,0,?,-7%[15.4 µM]
CN(C)C(=O)c1ccc(-c2cc(C(F)(F)F)nn2C)s1,-3.9,4,-3%,-3,0,7%[15.4 µM]
Cc1nn(-c2ccccc2)c2ncc(C(=O)c3cc(Cl)ccc3O)cc12,0.5,-21,-18%,-9,-16,-26%
Cc1cc(-c2n[nH]c(=S)n2/N=C/c2cccc(O)c2)n[nH]1,-1.7,4,-3%,-9,-3,13%[15.4 µM]
CN=C(Nc1cc(C)nn1-c1ccccc1)c1ccccc1F,0.3,1,9%,-1,1,10%
CCCc1ccc(S(=O)(=O)N2CCN(C(C)C(=O)NCc3ccc(OC)cc3)CC2)cc1 (configuration not stated),-2.9,-2,-19%,-4,-5,-14%
CCOc1ccccc1OCC(=O)NC1CCCCC1,0.4,15,3%,-11,-4,19%
COc1ccc2c(C)cc(Sc3nnnn3-c3ccccc3)nc2c1,0.1,9,-3%,-11,14,8%
Cc1ccc(OCC(=O)NC(=S)Nc2ccc(Br)c(C)n2)cc1,-0.5,7,-2%,-7,6,3%
